Screening results as filed in PubChem BioAssay.
TRPML1 agonist: agonists of human TRPML1 channel; Q9GZU1; TRPML1-expressing cells, Ca2+ dye fluorescence, FDSS; host cell line not named in the record; reference of the full effect not given here; activation, % (no concentration beside the values); actives 0.12% (n = 410,000); in the data active = activation above about 50%; inconclusive = about 30% to 50%; inactive = below about 30%; note: 0% is about no effect; the text of the record puts the active cut at 80%
Target sequence (Q9GZU1 whole entry, looked up): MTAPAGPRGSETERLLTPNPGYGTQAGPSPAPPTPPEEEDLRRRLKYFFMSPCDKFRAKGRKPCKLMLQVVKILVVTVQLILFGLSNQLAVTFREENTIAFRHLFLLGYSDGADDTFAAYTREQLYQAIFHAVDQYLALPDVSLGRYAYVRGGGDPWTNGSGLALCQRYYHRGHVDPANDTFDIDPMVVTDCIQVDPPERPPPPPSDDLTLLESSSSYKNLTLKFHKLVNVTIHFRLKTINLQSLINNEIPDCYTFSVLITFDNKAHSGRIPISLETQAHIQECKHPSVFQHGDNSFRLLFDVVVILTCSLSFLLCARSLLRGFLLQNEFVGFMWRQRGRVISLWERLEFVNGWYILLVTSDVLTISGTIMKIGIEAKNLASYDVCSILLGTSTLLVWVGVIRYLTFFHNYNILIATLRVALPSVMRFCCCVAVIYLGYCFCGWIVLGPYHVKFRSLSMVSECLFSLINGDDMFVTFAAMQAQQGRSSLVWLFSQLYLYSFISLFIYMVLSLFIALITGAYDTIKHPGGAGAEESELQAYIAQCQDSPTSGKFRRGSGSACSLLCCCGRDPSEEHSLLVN
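In this qHTS format, compounds were pin-transferred onto Ca8-dye-loaded TRPML1-DL cells induced with Tet overnight, and intracellular Ca2+ fluorescence was recorded kinetically for 110 s after a 10 s baseline. A subsequent 4uM final 54-4 (EC80) addition followed by a second 110 s read served as the antagonist phase.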
CtBP-E1A blk: blocks the CtBP interaction with E1A | AlphaScreen GST-E1A/His-CtBP binding, 1536-well; stronger effect = lower value; control for the full effect not named in the record | activity change, % (test concentration not listed) | actives 0.49% (n = 340,000); in the data active means activity change below about -65%; inconclusive means about -30% to -65%; inactive means above about -30%; note: % is set by controls: 0 for no effect and ±100 for the full control effect; compound concentration not given in the record
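In 5 uL wells, 23 nL compound meets equimolar GST-E1A and His-CtBP (5X stock 125 nM each) for 2 h, 37 °C. Beads (5X, 50 ug/mL) then 1 h, 37 °C, dark.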
D2 ag: human D2 receptor agonism in beta-arrestin assay | actives 0.084% (n = 360,000) | activation, % (concentration not given with the values) | DiscoveRx PathHunter D2 beta-arrestin, luminescence, 90 min; 100% = 57 uM dopamine signal | P14416; in the data active = activation above about 40%; inconclusive = about 15% to 40%; inactive = below about 15%; note: compound concentration not given in the record; the text of the record calls up to 30% inactive
Target sequence (P14416 whole entry, looked up): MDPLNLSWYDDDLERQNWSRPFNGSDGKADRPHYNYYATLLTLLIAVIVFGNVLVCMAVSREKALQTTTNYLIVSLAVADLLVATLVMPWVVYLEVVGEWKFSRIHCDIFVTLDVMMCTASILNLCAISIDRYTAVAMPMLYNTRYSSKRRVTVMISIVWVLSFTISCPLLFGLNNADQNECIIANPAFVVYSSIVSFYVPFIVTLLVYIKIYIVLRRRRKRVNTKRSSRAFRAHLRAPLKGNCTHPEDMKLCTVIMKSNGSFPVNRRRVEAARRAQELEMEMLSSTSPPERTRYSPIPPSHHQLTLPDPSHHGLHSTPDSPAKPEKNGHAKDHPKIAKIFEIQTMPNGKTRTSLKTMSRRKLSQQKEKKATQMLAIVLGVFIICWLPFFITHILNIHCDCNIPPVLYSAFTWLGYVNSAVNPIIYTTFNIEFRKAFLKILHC
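DiscoveRx PathHunter D2 beta-arrestin cells (2,100/well) attached overnight, then compound-stimulated 90 min at 37 C in HBSS/10 mM HEPES/0.1% Tween-20 buffer; beta-galactosidase complementation read by luminescence after 1 h at ambient temperature. Dopamine 57 uM final (EC100) as control.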
Six1-Eya2 blk: inhibitors of human Six1/Eya2 interaction. activity change, % (concentration not given with the values). AlphaScreen GST-Six1/His-Eya2 binding, biochemical; stronger effect = lower value; control for the full effect not named in the record. actives 0.56% (n = 360,000); in the data active = activity change below about -65%; inconclusive = about -30% to -65%; inactive = above about -30%; note: % is set by controls: 0 for no effect and ±100 for the full control effect
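Homogeneous AlphaScreen proximity assay pairing GST-Six1 with His-tagged Eya2 (added as 5X mix: 250 nM and 500 nM) in 50 mM Tris pH 8.0, 300 mM NaCl, 1 mM TCEP. Glutathione donor and nickel acceptor beads; 1 h, 37 °C, dark.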
D2 PAM: potentiates the human D2 dopamine receptor allosterically; potentiation, % (concentration not given with the values); DiscoveRx D2 beta-arrestin cells, luminescence, 90 min; 100% = 57 uM dopamine signal; actives 0.23% (n = 360,000); AID 624464; P14416; active = potentiation of 50% or more; inconclusive = 30% to 50%; inactive = 30% or less;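 note: compound concentration not given in the record; tested on top of an EC20 dose of dopamine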
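PathHunter D2 cells, attached overnight at 37 deg C, received compound in DMSO plus dopamine at EC20 (50 nM final) for 90 min at 37 deg C. Beta-arrestin recruitment was read as luminescence after 1 h with detection reagent at ambient temperature.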
PINK1 expr mod: PINK1 expression modulation; PINK1 immunofluorescence, high-content cytometry, 24 h; Potency, µM (titrated, usually from 76.6 µM), without a hit: at the highest dose activation (PINK1 increase), most hits filed as activators; actives 0.2% (n = 410,000); active = well fitted activation curve with a large enough effect; inconclusive = small, poorly fitted or top-dose-only effect; inactive = flat fitted curve, though single readings scatter; cell line not stated here;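 note: potency is the fitted concentration of half-maximal effect; % of control where 0% means no effect; nearly all actives have a fitted effect of over 65% in size; a mitochondrial uncoupler was the plate control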
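Readout is PINK1 immunofluorescence, quantified alongside mitochondrial, cell and nuclear markers by laser-scanning microplate cytometry. Cells from a stable line were exposed to compound titrations (5 concentrations) for 24 hours, with CCCP controls.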
Numbers without * were called inactive; ? = inconclusive; . = not tested or not shown; & = joins results of further samples. This is a random part of the collection (roughly 1.3% active in at least one column).

SMILES	TRPML1 agonist	CtBP-E1A blk	D2 ag	Six1-Eya2 blk	D2 PAM	PINK1 expr mod
COc1ccc(NC(=O)CN2CCN(CC(=O)Nc3ccc(F)cc3)CC2)cc1Cl	0.2	-3.5	-2.7	-2.4	-11.1	0.1%
Cc1cc(=O)[nH]c2c(C)cc(S(=O)(=O)N3CCCCC3)cc12	-0.1	2.0	-1.2	4.3	-10.6	2.9%
O=C(CN1CCC(NC(=O)Nc2ccccc2)CC1)Nc1ccc([N+](=O)[O-])cc1	0.0	-0.6	0.2	-8.4	-3.3	-2.8%
CC(C)c1ccc(NC(=S)N(C)CCc2ccccn2)cc1	1.1	-7.8	-2.3	2.8	-7.5	1.3%
CN(C)c1ccc(C(O)P(=O)(OC2CCCCC2)OC2CCCCC2)cc1 (configuration not stated)	-0.8	-10.2	-2.5	-8.0	-6.2	1.5%
O=C1CN(C(=O)COC(=O)c2ccc(C(F)(F)F)cc2)c2ccccc2N1	0.1	2.6	-1.0	0.9	-2.2	8.0%
Cc1ccc(C(=O)N2CCN3C(=O)c4ccccc4C23c2ccccc2)cc1 (configuration not stated)	-0.6	0.0	-0.7	-1.2	-4.6	0.0%
CCOc1ccc(-n2c(=O)c3ccccc3c3ccccc3c2=O)cc1	-0.3	1.8	-3.6	1.8	-5.7	-0.4%
C/C(=N\N=C1/NC(=O)C(C)S1)c1ccco1 (configuration not stated)	-0.4	4.8	-2.6	22.6	0.1	3.2%
OCC1(Cc2ccccc2)CCN(Cc2ccccn2)CC1	0.8	4.6	4.1	-7.2	-6.2	-2.6%
COc1ccc(Br)cc1/C=N/NC(=O)CNC(=O)C1COc2ccccc2O1 (configuration not stated)	1.4	6.6	1.2	-8.5	-26.4	5.6%
O=c1oc2ccccc2c(CNc2ccccc2)c1[N+](=O)[O-]	1.3	.	-3.9	-1.8	-4.9	-0.2%
COc1cc([N+](=O)[O-])ccc1NC(=O)NNC(=O)CCc1ccccc1	0.6	-0.8	6.3	1.2	-7.9	-0.6%
COc1cc(C)cc(CN2CCC(Cc3ccccc3)CC2)c1O	-0.5	-17.5	-6.5	-25.0	-33.2	10.8%
C=CCn1cccc(C(=O)Nc2ccc(C)cc2)c1=O	-0.2	.	-7.4	0.0	0.1	1.6%
Cc1cc(=O)[nH]c2c(C)cc(S(=O)(=O)Nc3ccc(O)cc3)cc12	.	.	3.5	2.7	11.5	1.7%
OCCN1CCN(CC(O)COCCOc2ccc(Br)cc2)CC1 (configuration not stated)	-0.1	-10.0	1.0	-1.5	-2.6	1.6%
CCNc1cc(Cl)nc(SC)n1	-0.2	-4.2	-2.8	-0.6	-3.3	1.0%
COc1ccc(-c2cc3cc(-c4cc(OC)c(OC)c(OC)c4)ccc3o2)cc1	-0.6	3.4	-5.4	1.1	-4.8	-0.7%
COc1ccc(CC(=O)Nc2nc(-c3cccc([N+](=O)[O-])c3)cs2)cc1	0.2	-7.8	-1.5	0.1	7.9	4.9%

Copied from the list:
D2 PAM, `Cc1cc(=O)[nH]c2c(C)cc(S(=O)(=O)Nc3ccc(O)cc3)cc12` reads 11.5
Six1-Eya2 blk, `COc1ccc(-c2cc3cc(-c4cc(OC)c(OC)c(OC)c4)ccc3o2)cc1` reads 1.1
D2 ag, `Cc1ccc(C(=O)N2CCN3C(=O)c4ccccc4C23c2ccccc2)cc1` (configuration not stated) reads -0.7
Six1-Eya2 blk, `COc1ccc(CC(=O)Nc2nc(-c3cccc([N+](=O)[O-])c3)cs2)cc1` reads 0.1
PINK1 expr mod, `C/C(=N\N=C1/NC(=O)C(C)S1)c1ccco1` (configuration not stated) reads 3.2%
CtBP-E1A blk, `O=C(CN1CCC(NC(=O)Nc2ccccc2)CC1)Nc1ccc([N+](=O)[O-])cc1` reads -0.6
D2 ag, `CN(C)c1ccc(C(O)P(=O)(OC2CCCCC2)OC2CCCCC2)cc1` (configuration not stated) reads -2.5

Other records.
SMILES	TRPML1 agonist	CtBP-E1A blk	D2 ag	Six1-Eya2 blk	D2 PAM	PINK1 expr mod
N/C(=N\O)c1ccc(NC(=O)c2cccs2)cc1	-0.2	6.2	-0.9	-0.7	12.4	-1.0%
O=C(NC1CCCC1)C1CCCN(C(=O)Nc2ccccc2)C1 (configuration not stated)	0.8	-2.1	-3.1	0.5	-4.0	-1.6%
COc1cc(CN2CCNC(=O)C2CC(=O)NC2CCC2)cc(OC)c1 (configuration not stated)	0.7	.	-1.2	-2.4	-5.2	-0.2%
Nc1c(S(=O)(=O)c2ccccc2)nnn1-c1ccccc1	-0.5	5.2	-2.6	1.2	-4.6	-1.5%
C=CS(=O)(=O)N(Cc1ccccc1Br)[C@H](CO)Cc1ccccc1	-1.1&2.4	2.7	1.9	0.1	-10.1	-0.8%
CCOC(=O)[C@@H]1[C@H]2COc3cc(OC)ccc3[C@H]2N2C(=O)N(c3cccc(F)c3)C(=O)[C@]12C	1.5	-5.0	-5.1	2.9	-5.3	0.0%
CC1CCc2sc(NC(=O)c3ccc(N4C(=O)CCC4=O)cc3)c(C(N)=O)c2C1 (configuration not stated)	0.5	2.3	-2.1	-2.1	?	3.5%
CC1=C(C(=O)N2CCCCCC2)CC(CC(=O)NCC2CCCCC2)C(=O)N1CCCN1CCCC1=O (configuration not stated)	0.1	4.0	.	2.5	.	0.0%
CCC(=O)N1CCC1(C)C(=O)Nc1cccc(OC)c1 (configuration not stated)	0.4	4.1	-6.8	-4.7	1.8	0.9%
N#CC1(NC(=O)CN2C(=O)NC(Cc3c[nH]c4ccccc34)C2=O)CCCCC1 (configuration not stated)	0.0	6.6	-3.4	-3.0	-10.8	-2.2%
Cc1ccc(S(=O)(=O)Nc2cc(C)on2)cc1	-0.8	-3.7	-1.0	10.0	-0.1	2.0%
COc1ccc(NC(=O)CN2CCN(C(=O)N3CCOCC3)CC2)cc1	0.9	-12.7	3.8	6.9	-0.8	-1.5%
Cn1c(=O)c([N+](=O)[O-])c(NCCc2ccccc2)c2ccccc21	0.3	-3.0	-5.6	?	-16.9	-0.1%
Cc1cc(Cl)nc(-c2ccccc2)n1	1.6	-0.5	5.1	11.0	-20.9	1.7%
Cc1cc(C)n2nc(Cc3ccccc3)nc2n1	-1.3	0.5	-3.4	1.2	1.5	-0.6%
O=C(N/N=C/c1c(F)cccc1Cl)C1CC1	0.2	1.7	0.8	-0.8	-4.6	-1.8%
COc1ccc2cc3cc(C(=O)NC4CC4)sc3nc2c1	0.0	?	2.5	-14.9	-42.8	2.6%
CCOC(=O)N1CCN(C2CC(=O)N(c3ccc(F)cc3)C2=O)CC1 (configuration not stated)	0.9	2.9	-0.9	3.7	1.5	.
CN(C)c1nc(-c2cn(CCC#N)c3ccccc23)cs1	-0.6	2.9	-15.2	11.7	-21.0	-1.2%
CCCCNC(=O)CCC(=O)Nc1ccc2nc(N3CCOCC3)cc(C)c2c1	-0.1	0.8	-0.6	-4.5	-6.1	2.1%

Gathered by group, the entries above containing a furan ring, fused or not.
SMILES	TRPML1 agonist	CtBP-E1A blk	D2 ag	Six1-Eya2 blk	D2 PAM	PINK1 expr mod
C/C(=N\N=C1/NC(=O)C(C)S1)c1ccco1 (configuration not stated)	-0.4	4.8	-2.6	22.6	0.1	3.2%
COc1ccc(-c2cc3cc(-c4cc(OC)c(OC)c(OC)c4)ccc3o2)cc1	-0.6	3.4	-5.4	1.1	-4.8	-0.7%

New compounds follow
SMILES	TRPML1 agonist	CtBP-E1A blk	D2 ag	Six1-Eya2 blk	D2 PAM	PINK1 expr mod
O=C(CSc1ncn[nH]1)Nc1ccccc1-c1ccccc1	-0.3	-2.4	1.7	6.5	-10.2	-0.2%
COc1cccc(C2/C(=C(/O)c3ccc4c(c3)CC(C)O4)C(=O)C(=O)N2CC2CCCO2)c1 (configuration not stated)	-0.4	0.9	-3.2	-2.0	-11.4	0.9%
Cc1cc2c(c(SCC#N)n1)C(=O)OC2	-0.1	1.4	2.3	1.9	2.6	-0.7%
Cn1c2c(c(=O)n(C)c1=O)C(c1ccccc1OC(F)F)C1=C(CCCC1=O)N2 (configuration not stated)	0.2	-2.3	-2.9	6.5	-6.3	-1.8%
CNC(=O)N(O)C1N(/N=C/c2ccc(C)cc2)C(=S)SC1(C)C (configuration not stated)	1.1	.	-3.7	8.7	-10.0	1.1%
O=C(Cc1c(Cl)cccc1Cl)N1CCN(S(=O)(=O)c2cccs2)CC1	0.3	8.6	0.2	8.1	-2.0	1.1%
CCn1c(=O)cc(SCC(=O)NCc2ccc(C)cc2)c2ccccc21	1.4&1.5	-8.5	-2.8	-14.5	-2.2	11.1%&1.2%
C=CCCOc1ccccc1C(N)=O	1.4	-2.5	-0.8	-1.1	-0.9	-0.2%
Nc1c(/C=C2/C=CC(=O)C(O)=C2)c(=O)nc2sc(CC(=O)N3CCOCC3)nn12	0.6	-20.8	-1.7	?	-25.7	0.2%
Cc1ccc(-c2csc(NC(=O)C3CCN(S(=O)(=O)c4cccs4)CC3)n2)cc1	-0.1	0.7	0.0	-0.9	3.3	1.2%
Cc1cc(NS(=O)(=O)c2ccc(NC(=O)Nc3cccc(Cl)c3)cc2)no1	0.0	1.1	-2.8	-9.3	1.4	-1.2%
COC(=O)c1nn(-c2ccc(OC)cc2)c(=O)cc1Oc1cccc(Cl)c1	-0.8	12.6	-2.2	6.4	5.8	0.2%
Cc1nc2ccccc2cc1C(=O)N/N=C/c1ccc([N+](=O)[O-])cc1	-0.2	-9.7	-1.2	-11.6	1.5	1.6%
Cc1ccc(S(=O)(=O)N2CCN(C(=O)CN3CCCSc4ccccc43)CC2)cc1	0.2	-6.1	-3.3	2.9	-4.5	0.4%
CN(Cc1nccs1)C(=O)C1CCC(=O)N(Cc2ccccc2F)C1 (configuration not stated)	-0.1	5.7	-4.4	-0.5	9.6	2.5%
COC(=O)/C(=C1/Oc2ccc(C(C)(C)C)cc2S1)C(F)(F)F	0.7	0.9	-2.6	8.4	-1.3	3.4%
COc1ccc(NC(=O)CN2C(=O)CSC2=O)cc1	-0.6	2.9	-0.4	2.6	0.1	1.1%
CC(C)/C=C/CN1CCN(CCCc2ccccc2)C(CCO)C1 (configuration not stated)	0.5	-1.7	-5.6	1.2	-11.8	0.6%
COc1cccc(CN(CC(=O)NCC2CCCO2)C(=O)CCC(=O)Nc2cc(C)on2)c1 (configuration not stated)	0.7	8.0	-5.1	4.2	-10.0	0.2%
COc1cc(/C=N/N(c2ccccc2)c2ccccc2)ccc1O	3.2	?	?	2.4	-4.7	-0.7%
Cc1ccc(S(=O)(=O)N2CCCC2)cc1C(=O)NCCOc1ccccc1	-0.7	.	-2.3	3.4	3.8	1.8%
O=C1C2C3C=CC(C4CC34)C2C(=O)N1Cc1ccccc1 (configuration not stated)	0.4	2.7	-1.8	-0.7	0.4	0.5%
Cc1ccc2oc(=O)n(CCOc3ccccc3Cl)c2c1	2.7	-17.1	-2.0	-0.7	-3.4	8.2%
Cc1nnc(C)n1/N=C/c1cccs1	0.0	2.6	-3.3	7.7	-10.0	-1.9%
Cn1cc(/C=C/C(=O)c2ccccc2)c2ccccc21	0.5	0.8	-3.8	-2.1	-8.9	5.5%
Fc1ccccc1NC(=S)NCCc1ccccc1	-0.2	-7.8	-3.3	-3.7	2.3	3.2%
